Mtb growth – Mycobacterium tuberculosis H37Rv growth inhibition, cell based, confirmatory dose response (AID 1949); hit rate 1.6% among 100,000; inhibition, % at 10 µg/mL, or IC50 in µg/mL where a hit was titrated; most inactive calls were filed without a number and no value below 0 was filed;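 active = confirmed in a dose series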;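 note: bacteria grown 7 days with compound before Alamar blue readout; 0% = untreated bacteria and 100% = reference antibiotic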
* marks the source's active call; other numbers are inactive results; i = inactive. These rows are one share of the data, so the mix of outcomes need not match the whole.

SMILES	Mtb growth
Cc1ccc(-c2noc(CSc3nc4sc5c(c4c(=O)n3-c3ccccc3)CCCC5)n2)cc1	4.2%
CCCN1C(=O)c2cccc3cc([N+](=O)[O-])cc(c23)C1=O	<0.1µg/mL*
O=C(CCN1C(=O)c2ccccc2C1=O)Nc1ccccc1C(=O)NC1CCCCC1	i
Cc1ccccc1CN(c1ccc(C(=O)Nc2ccc(S(=O)(=O)N3CCCCC3)cc2)cc1)S(C)(=O)=O	i
CCOc1ccccc1N(CC(=O)NC1CCCCC1)S(C)(=O)=O	i
CC(=O)c1cc(-c2ccccc2)[nH]c1NC(=O)c1ccccc1	2.3%
O=C(c1ccccc1F)N1CCN(c2cc(N3CCCC3)c(F)cc2[N+](=O)[O-])CC1	11.1%
Cc1ccc(Nc2nc(-c3cccs3)cs2)nc1	10.0%
O=C(c1cccs1)N1CCN(Cc2ccccc2Br)CC1	i
CC(=O)CSc1nc(-c2ccccc2)cc(-c2ccccc2)c1C#N	i
Cc1cc(C(=O)Nc2sc3c(c2C(N)=O)CCCCC3)no1	i
COc1ccc(-c2cc(=O)c3cc(OC(=O)c4cccnc4)ccc3o2)cc1	i
c1ccc(-c2ccccc2OCCCSc2ncccn2)cc1	i
N#Cc1ccc(NC(=O)Nc2ccc(Cl)cc2)cc1	0.51µg/mL*
O=C(CCc1ccccc1)Nc1ccc(Cl)cn1	i
Cn1nc([N+](=O)[O-])nc1Sc1nnnn1-c1ccc(C(=O)O)cc1	i
Cc1ccccc1CN(c1ccc(C(=O)Nc2cc(Cl)ccc2Cl)cc1)S(C)(=O)=O	i
Cc1oc(-c2ccccc2Cl)cc1-c1nn2c(-c3ccccc3)nnc2s1	7.4%
Cc1cc([N+](=O)[O-])ccc1NC(=O)c1cccc(NC(=O)C(C)C)c1	i
Cc1ccc(Nc2cc(=O)oc3ccccc23)c(C)c1	i
O=C1C2CCCCC2C(=O)N1CCC(=O)N1c2ccccc2Sc2ccccc21 (stereo unspecified)	i
O=C(N1CCCCC1)n1cnc(-c2ccccc2)c1-c1ccccc1	i
c1cc(-c2nn3cnnc3s2)ccn1	i
O=C(N1CCN(c2ccccn2)CC1)C12CC3CC(CC(C3)C1)C2	i
CC(C)Oc1ccc(C(CC(=O)NC2CCOC(C)(C)C2)c2ccccc2)cc1 (stereo unspecified)	i
COc1ccc(NC(=O)C23CC4CC(CC(C4)C2)C3)c([N+](=O)[O-])c1	i
CC(C)(C)NC(=O)Cn1cc(C(=O)C2CCCCC2)c2ccccc21	i
Cn1c(CN2CCCCC2)nc2cc(NS(C)(=O)=O)ccc21	i
CCOC(=O)c1c(CN(C)C)n(C)c2ccc(O)cc12	i
CCOC(=O)c1c(NC(=O)OC)sc2c1CCC2	4.5%

Of the compounds above, these have a halogen.
SMILES	Mtb growth
O=C(c1ccccc1F)N1CCN(c2cc(N3CCCC3)c(F)cc2[N+](=O)[O-])CC1	11.1%
O=C(c1cccs1)N1CCN(Cc2ccccc2Br)CC1	i
N#Cc1ccc(NC(=O)Nc2ccc(Cl)cc2)cc1	0.51µg/mL*
O=C(CCc1ccccc1)Nc1ccc(Cl)cn1	i
Cc1ccccc1CN(c1ccc(C(=O)Nc2cc(Cl)ccc2Cl)cc1)S(C)(=O)=O	i
Cc1oc(-c2ccccc2Cl)cc1-c1nn2c(-c3ccccc3)nnc2s1	7.4%

Next entries:
SMILES	Mtb growth
CC(C(=O)Oc1ccc(C2C3=C(CC(C)(C)CC3=O)NC3=C2C(=O)c2ccccc23)cc1)N1C(=O)c2ccccc2C1=O (stereo unspecified)	i
CCc1ccc(-c2csc(NCc3ccccc3)n2)cc1	5.7%
N/C(=N\OC(=O)CSc1ccccc1)c1ccncc1	i
CN(C(=O)CSCc1ccccc1)c1ccccc1	1.9%
S=C(NCc1ccc(Cl)cc1)Nc1cccc(Cn2cc(Cl)cn2)c1	2.4%
Cc1cc(Cl)ccc1OCC(=O)Oc1ccccc1Cl	i
CN(C)S(=O)(=O)c1ccc(C(=O)NCCOc2ccc(F)cc2)cc1	i
CC(=O)c1c(C)nn(CC(O)COc2ccc3ccccc3c2Cl)c1C (stereo unspecified)	i
O=c1[nH]c(/C=C\c2c(OCc3ccccc3)ccc3ccccc23)c([N+](=O)[O-])c(=O)[nH]1	i
COc1cc(NC(=S)NC(=O)c2cncc(Br)c2)cc(OC)c1OC	i
CC(C)N1CCN(C(=O)c2cccnc2)CC1	i
COc1ccccc1C(=O)Nc1sc2c(c1C(=O)NCc1ccco1)CCCC2	i
CCOc1ccccc1NC(=O)CSc1nc2ccc(NC(C)=O)cc2s1	2.0%
Cc1cccc(OCC(=O)Nc2ccc3oc(-c4ccc(F)cc4Cl)nc3c2)c1	i
CCn1c(SCC(=O)Nc2ccc(I)cc2C(C)C)nnc1-c1ccccc1	i
COc1cc([N+](=O)[O-])ccc1NC(=S)Nc1ccc(F)c(Cl)c1	2.76µg/mL*
CC(=O)N1CCN(c2ccc(NCc3cccc4ccccc34)cc2)CC1	2.9%
CN(CC(=O)NC1CCCCCC1)S(=O)(=O)c1ccc(Br)cc1	1.8%
CC1=C(C(=O)NCc2ccccc2)C(c2cccc(Br)c2)NC(=S)N1 (stereo unspecified)	i
Cc1ccc(C(=O)N/C(=N/c2nc3c(c(=O)[nH]2)CCCC3)Nc2cccc(C)c2)cc1	i
Cc1cc(C(=O)NC(C)C23CC4CC(CC(C4)C2)C3)c(C)o1 (stereo unspecified)	i
CC(=O)c1c(-c2ccccc2)nc2n(CCN3CCOCC3)c3ccccc3n12	i
CCNC(=O)C(C)Oc1ccc(Cl)cc1Cl (stereo unspecified)	i
S=C(NNC(=S)Nc1ccc(Br)cc1Cl)Nc1ccc(Cl)cc1	i
Cc1cc(OCC(=O)N2CCN(C)CC2)cc(C)c1Cl	i
Cc1occc1-c1n[nH]c(=S)n1-c1ccccc1	0.2%
O=C(Nc1ccc(NC(=O)c2sc3ccccc3c2Cl)cc1)c1sc2ccccc2c1Cl	i
CCN(CC)C(=O)C(=O)Nc1cccc(SC)c1	i
CCn1ccc(C(=O)Oc2ccc(Cl)cc2)n1	31.4%
O=C(CCN1C(=O)C2C3CCC(C3)C2C1=O)Nc1cc(C(F)(F)F)ccc1Cl (stereo unspecified)	i
COc1ccc(Br)cc1C(=O)Nc1ccc(N2CCOCC2)c(Cl)c1	i
OCc1ccccc1CN1CCOCC1	1.8%
CC1(C)CC(NC(=O)CCCOc2ccc(Cl)cc2Cl)CC(C)(C)N1	i
O=C(Nc1ccccc1I)c1ccc(N2CCCC2)c([N+](=O)[O-])c1	i
Cc1cc(Br)ccc1OCC(=O)Nc1ccc(S(=O)(=O)N2CCCC2)cc1	i
Cn1c(SCC(=O)Nc2cccc(C(F)(F)F)c2)nnc1-c1ccncc1	0.4%
NS(=O)(=O)c1ccc(CCNC(=S)Nc2ccc(F)cc2)cc1	i
COc1cccc(OC)c1C(=O)Nc1ccc(NC(=O)c2ccc(C(C)(C)C)cc2)cc1	i
Cc1ccc(OCC(=O)NC(=S)Nc2ccc(Br)c(C)c2)cc1C	31.2%
Cc1cc(C(F)(F)F)nn1CCCNC(=O)c1cccs1	i
COC(=O)c1cc(OC)c(OC)cc1NC(=O)Cc1ccc(Cl)cc1	i
O=C(COC(=O)C1CCN(S(=O)(=O)c2cccc3cccnc23)CC1)c1ccccc1	0.6%
COc1cccc(C(=O)Oc2ccc3c(c2)oc(=O)c2ccccc23)c1	3.1%
N#C/C(=C\c1ccc(Cl)cc1)c1nc(-c2ccccc2O)cs1	i
C=CCN(CC=C)CCCOc1cc(C)ccc1C(C)C	1.1%
O=C(OCc1ccc(S(=O)(=O)c2ccccc2)cc1)c1cc2ccccc2oc1=O	i
CC(C)(C)NC(=O)c1ccc(NC(=O)COc2ccc(I)cc2)cc1	2.1%
COc1ccc(OC)c(NC(=O)CN(C)S(=O)(=O)c2c(C)cc(C)cc2C)c1	i
COc1ccc(C)cc1NC(=O)c1cc(OC)c(OC)c(OC)c1Br	i
Cc1ccc(NC(=O)C(=O)NC2CCCC2)c(C)c1	i
Other entries follow.
SMILES	Mtb growth
CN(CC(=O)N1CCCCCC1)S(=O)(=O)c1ccc(F)cc1	i
N#Cc1ccc(-c2cccs2)nc1SCCN1CCOCC1	7.4%
Cc1cc(C)cc(COc2ccc3c4c(c(=O)oc3c2)CCC4)c1	i
COc1cccc(C(C)NC(=O)Nc2cccc(C(F)(F)F)c2)c1 (stereo unspecified)	17.8%
COC(=O)COc1ccc(Br)cc1C=O	12.4µg/mL*
CCCCN(C)CCOc1ccc(Cl)cc1	i
CC(C)CC(=O)Nc1ccc2oc(-c3ccccc3Cl)nc2c1	i
CCOc1ccc2nc(NC(=O)c3ccc([N+](=O)[O-])cc3)sc2c1	i
Cc1ccc(-c2c(C)sc3ncn(CC(=O)NCc4ccccc4)c(=O)c23)cc1C	32.5%
O=C(Nc1cccc([N+](=O)[O-])c1)C1CC(=O)N(Cc2ccccc2)C1 (stereo unspecified)	i
CS(=O)(=O)Nc1ccc(C(=O)N2CCCC2)cc1	i
Cc1cc(OCC(=O)NCc2ccccn2)cc(C)c1Cl	i
Oc1ccc(NCc2cccc(OCc3ccc(F)cc3)c2)cc1	i
Cc1ccc(C(=O)N(Cc2nc(-c3cccc(C)c3)no2)C(C)C)cc1	6.8%
CCOC(=O)CSc1nc(N)nc(C)c1Cl	i
COc1cc(Cl)c(C)cc1NC(=O)CSc1ccccc1	i
C=CCn1c(SCc2ccc(C#N)cc2)nnc1-c1ccccc1C	3.6%
CCOC(=O)N1CCN(C(=O)C(NC(=O)c2ccc(CC)cc2)C(C)C)CC1 (stereo unspecified)	i
O=C(Nc1nc2ccccc2s1)C1CCCCC1	i
CCN1CCN(C2CCN(C3CCN(Cc4ccccc4)CC3)CC2)CC1	i
Cc1ccc2c(c1)c1c(n2CC(O)CO)C(=O)CCC1 (stereo unspecified)	i
CC1(C)C2CCC1(C)C(NC(=O)COc1ccccc1)C2 (stereo unspecified)	3.9%
COc1ccc(OC)c(S(=O)(=O)N2CCN(c3cc(C)ccc3C)CC2)c1	i
Cc1ccc(SCCC(=O)Nc2cccnc2)cc1	i
COc1ccc(C(=O)NNC(=O)C(C)(C)C)cc1Br	i
Cc1ccc(SCCC(=O)Nc2ccc(S(=O)(=O)Nc3cccc(C)c3)cc2)cc1	i
COc1ccc(C(=O)n2cncn2)cc1	i
CC(C)(C)C1CCc2c(sc(NC(=O)CSc3n[nH]c(-c4ccncc4)n3)c2C#N)C1 (stereo unspecified)	i
O=C(Nc1ccccc1N1CCOCC1)c1cc(I)ccc1Cl	i
Cc1cc(Cl)c(OCCOCCN2CCN(C)CC2)c(Br)c1	i
CN(c1ccccc1C(=O)Nc1ccccc1C(=O)NC1CCCCC1)S(=O)(=O)c1ccccc1	2.8%
CC(C)OC(=O)c1ccc(NC(=S)NC(=O)COc2ccc(C(C)C)cc2)cc1	41.7%
Cc1cc(C)c(C)c(OCC(=O)Nc2cccc3ccccc23)c1	i
Cc1ccccc1OC(C)C(=O)Nc1ccc(C(N)=O)cc1 (stereo unspecified)	1.0%
O=S(=O)(Cc1ccccc1)c1cccc2c(S(=O)(=O)Cc3ccccc3)cccc12	3.3%
O=C1C2C3C=CC(C2C(=O)N1C1CCCCC1)C1C(=O)N(C2CCCCC2)C(=O)C31 (stereo unspecified)	2.6%
COc1cccc(C=C2C(=O)NC(=O)NC2=O)c1OCc1ccc(Cl)cc1Cl	i
CCn1c(SCc2ccc(C(C)(C)C)cc2)nnc1-c1ccc(N)cc1	4.1%
COc1ccc(C(=O)NC(=S)Nc2nc(-c3ccc4ccccc4c3)cs2)cc1OC	i
O=Cc1cn(CC(=O)O)c2ccccc12	i

Another view of some results above:
O=Cc1cn(CC(=O)O)c2ccccc12
  Mtb growth: i
Cc1cc(C)c(C)c(OCC(=O)Nc2cccc3ccccc23)c1
  Mtb growth: i
COc1cccc(C=C2C(=O)NC(=O)NC2=O)c1OCc1ccc(Cl)cc1Cl
  Mtb growth: i
CCn1c(SCc2ccc(C(C)(C)C)cc2)nnc1-c1ccc(N)cc1
  Mtb growth: 4.1%

(more compounds)
SMILES	Mtb growth
Cc1cccc(C(=O)OCC(C)(C)N=C2NS(=O)(=O)c3ccccc32)c1	i
O=C(Nc1ccc(C(=O)N2CCCCC2)cc1)Nc1cccc(Cl)c1	i
O=C(Cc1cccc2ccccc12)Nc1cc(Cl)c(Cl)cc1Cl	i
Cc1ccnc(Nc2nc(-c3ccccc3)c3cc(Cl)ccc3n2)n1	3.6%
COc1cccc2cc(C(=O)C3=C(O)C(=O)N(Cc4ccco4)C3c3cccnc3)oc12 (stereo unspecified)	i
COc1ccc(C)cc1NC(=S)NNC(=O)C(C)Oc1ccccc1OC (stereo unspecified)	i
Cc1ccc(F)c(NC(=O)Cn2cc(C=O)c3ccccc32)c1	11.7%
O=C1C2C3C=CC(C4CC34)C2C(=O)N1N=Cc1ccc(-c2ccc(Cl)cc2)o1 (stereo unspecified)	i
CN(C)S(=O)(=O)c1ccc(NC(=O)c2ccccn2)cc1	2.6%
Nc1ccc(-c2nnc(SCC(=O)c3ccc(Cl)cc3)n2Cc2ccccc2)cc1	i
CC(C)(C)NC(=O)CSc1nccn1Cc1ccccc1	i
COc1ccc(NC(=O)CCSc2ccccc2)c(OC)c1	i
C=CCn1c(SCc2ccccc2F)nnc1-c1cc(Br)ccc1O	i
O=C(CSc1nc2ccccc2c(=O)n1Cc1ccccc1)N1CCCCC1	7.9%
O=C(O)c1ccc(Nc2nc(-c3cc4ccccc4oc3=O)cs2)cc1O	44.5%
Cc1ccc(-n2c(C)nnc2SCC(=O)Nc2ccc(C)cc2Br)cc1	i
CC(=O)Oc1ccc(C(=O)O/N=C(\N)c2ccccn2)cc1	i
CCOc1cc(CO)c(Br)cc1OCc1ccc([N+](=O)[O-])cc1	18.4%
C/C(=N\N1CCN(c2ccccc2)CC1)c1ccc(F)cc1	0.8%
CCNC(=O)c1ccc(-n2nc(C(F)(F)F)c3c2CCCC3)cc1	4.1%
Cc1ccc(Cl)cc1NC(=O)CSc1nnc(-c2ccncc2)n1C	i
